Beta2AR agonist – beta2AR agonists driving receptor internalization, primary screen, cell-based, FAP fluorogen, flow cytometry; Beta-2 adrenergic receptor (Homo sapiens), P07550; Am2.2-beta2AR cells; reference of the scale not given here; response, % (test concentration not listed); actives 0.43% (n = 340,000);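 active = response above a set limit, near 3 SD of response in nonfluorescent compounds, cut at about 42% in these data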;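 note: stock transfer was 100 nL into about 11 µL; a reference agonist was the positive control; negative values mostly stem from fluorescent compounds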
Target sequence (P07550 whole entry, looked up): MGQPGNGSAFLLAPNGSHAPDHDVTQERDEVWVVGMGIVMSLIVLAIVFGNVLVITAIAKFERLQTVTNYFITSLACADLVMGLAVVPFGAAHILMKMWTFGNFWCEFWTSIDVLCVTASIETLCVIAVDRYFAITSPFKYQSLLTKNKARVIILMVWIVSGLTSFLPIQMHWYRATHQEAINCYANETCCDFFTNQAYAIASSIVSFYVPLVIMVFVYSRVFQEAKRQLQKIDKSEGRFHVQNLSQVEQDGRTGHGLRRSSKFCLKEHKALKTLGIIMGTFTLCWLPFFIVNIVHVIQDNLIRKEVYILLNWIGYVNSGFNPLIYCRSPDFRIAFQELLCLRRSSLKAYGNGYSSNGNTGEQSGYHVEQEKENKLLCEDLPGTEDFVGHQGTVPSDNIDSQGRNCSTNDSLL
FGF22 binding – binders of human FGF22 protein, primary screen, FGF22 synaptogenesis inhibitor project, biophysical, thermal shift, single point | calls only at 9.99 µM | actives 1.5% (n = 340,000) | recombinant FGF22 thermal shift, SYPRO orange fluorescence; percent of sucrose octasulfate shift, DMSO zero | Fibroblast growth factor 22 (Homo sapiens), Q9HCT0;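 active = melting point raised past a set limit in the mean and every replicate; inconclusive = no clear call; three in four hits are not shown here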
Target sequence (Q9HCT0 whole entry, looked up): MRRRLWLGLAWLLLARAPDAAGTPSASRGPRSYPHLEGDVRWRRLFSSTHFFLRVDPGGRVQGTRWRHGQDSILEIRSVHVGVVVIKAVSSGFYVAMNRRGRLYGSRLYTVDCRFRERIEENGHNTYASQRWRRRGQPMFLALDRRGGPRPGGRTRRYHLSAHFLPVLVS
UCH37 inh – inhibitors of human UCH37 deubiquitinase, primary screen, biochemical, Ub-AMC cleavage, fluorescence | Ubiquitin carboxyl-terminal hydrolase isozyme L5 (Homo sapiens), Q9Y5K5 | purified proteasome/UCH37 | inhibition, % (no concentration beside the values) | actives 0.33% (n = 330,000) | AID 588478, 2011;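 active = mean of two replicates above 20%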;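 note: 0% = compound-free wells with enzyme and 100% = wells lacking proteasome; stock transfer was 100 nL into about 20 µL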
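Test system – human UCH37 enzyme supplied as purified proteasome complex · Incubation – 30 min preincubation with enzyme, 25 min cleavage at room temperature · Detection – AMC fluorescence from Ub-AMC cleavage, excitation 355 nm, emission 460 nm · Benchmarks – no-proteasome wells (full inhibition) and compound-free wells (no inhibition)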
HNF4A DNA FP – change in binding of human HNF4A to DNA, primary screen, biochemical, fluorescence polarization, FITC-DNA; Hepatocyte nuclear factor 4-alpha (Homo sapiens), P41235; 1 h; activity change, % at 10 µM; actives 0.3% (n = 360,000); in the data active = activity change above about 30%, passing the limit was not always enough;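 note: controls were the assay level and a saturating level of protein; the project sought stronger binding though the title names inhibitors; some compounds called inactive have numbers as strong as hits; positive values seem to mean higher polarization but the record does not say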
ALR inh – inhibitors of human ALR sulfhydryl oxidase, primary screen, biochemical, H2O2 detection, HRP-luminol luminescence, single point; FAD-linked sulfhydryl oxidase ALR (Homo sapiens), P55789; purified ALR, DTT oxidation; inhibition, % (test concentration not listed); actives 3.8% (n = 290,000);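 active = mean and each replicate at 75% or more; inconclusive = only one of the two met; inactive = neither met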;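 note: stock transfer was 7.5 nL into about 7.5 µL; 0% = neutral wells and 100% = wells with inactivated enzyme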
Target sequence (P55789 whole entry, looked up): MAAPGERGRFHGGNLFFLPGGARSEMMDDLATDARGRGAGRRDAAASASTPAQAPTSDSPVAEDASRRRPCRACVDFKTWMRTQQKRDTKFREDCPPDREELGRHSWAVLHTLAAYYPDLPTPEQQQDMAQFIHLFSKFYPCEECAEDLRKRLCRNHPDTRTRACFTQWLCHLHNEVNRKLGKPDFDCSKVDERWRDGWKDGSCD
E coli growth – E. coli growth inhibition, primary screen, OD600 | AID 1053175, 2014 | OD600 absorbance (test concentration not listed) | actives 0.21% (n = 330,000) | Escherichia coli growth, 23 h; active compounds read low;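 active = OD600 absorbance below the run mean of sample wells minus 3.6 SD, in any replicate, cut at about 0.56 in these data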;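 note: stock transfer was 300 nL into about 60 µL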
Ecoli rRNA inh – reduced GFP signal of wild-type E. coli, primary screen, bacterial rRNA inhibitor project, GFP/RFP fluorescence, OD600, single point | E. coli WT GFP vs humanized-ribosome RFP mutants, 24 h; active compounds read low; DMSO median 0, no signal -100 | GFP signal change (wild-type ribosome), % (test concentration not listed) | actives 1.6% (n = 350,000);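 active = significant combined selectivity score with lowered wild-type GFP, culture density cut under 30%, mutant RFP and density less affected; inactive = any of these conditions unmet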; note: one replicate is shown; some compounds called inactive have numbers as strong as hits
Ecoli rRNA inh OD600 – further read-out of Ecoli rRNA inh, marked with its call; OD600 change, %; measured here: OD600 growth;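 optical density of the mix in the first replicate; 0 = DMSO median and -100 = no signal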
Ecoli rRNA inh RFP – further read-out of Ecoli rRNA inh, marked with its call; RFP signal change, %; measured here: RFP humanized mutant strains;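 first replicate; 0 = DMSO median and -100 = no signal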
* hit, by the source's call; i = inactive; ? = inconclusive; . = not tested or not shown; & = joins results of further samples. The list is partial (hit frequency here may not be typical).

molecule	Beta2AR agonist	FGF22 binding	UCH37 inh	HNF4A DNA FP	ALR inh	E coli growth	Ecoli rRNA inh	Ecoli rRNA inh OD600	Ecoli rRNA inh RFP
COC(=O)C1=C(c2ccc(C(C)=O)cc2)C[C@@H]2CC[C@H]1N2C(=O)N1CCCCC1	-3.4	.	6.8	-1.9	-11.2	0.753	.	.	.
COc1cc(CN2CCN(C(=O)Cc3ccccc3)CC2)cc(OC)c1OC	9.0	i	1.6	0.3	-14.8	0.652	3.4	5.4	0.6
CC1C2Cn3c(nc4ccccc43)C1N(C)O2 (centres undefined)	-1.2	i	0.6	3.2	-3.8	0.716	14.9	13.1	-5.2
COc1ccc(-c2nc3ccc(C(=O)N4CCC5(CC4)OCCO5)cc3nc2-c2ccc(OC)cc2)cc1	12.7	i	-57.0	0.4	0.1	0.653	-4.9	-9.7	1.1
CN(C)CCn1cnc2ccccc21	0.1	i	4.8	-4.8	-4.3	0.717	11.6	10.3	0.1
COc1ccc(/C=C/C=C2C(=O)NC(=S)NC2=O)cc1	25.0	i	.	1.6	.	.	8.2	8.5	1.7
Cc1ccc(S(=O)(=O)CC(C)(O)C(=O)Nc2cccc(C(F)(F)F)c2)cc1 (centres undefined)	0.3	.	-0.2	0.7	39.9	0.674	.	.	.
CN1CCc2nc(SCC(=O)OC(C)(C)C)c(C#N)cc2C1	9.4	.	-17.4	8.6	-2.0	0.703	.	.	.
CC1=C(C/C(C)=C/c2ccccc2)/C(=C/CO)[C@H](O)[C@](C)(O)C12CC2	3.2	i	1.9	-1.3	-14.0	.	-2.3	4.0	-2.8
O=C(Cc1ccccc1)N1CCN(C/C=C/c2ccccc2)CC1	-7.6	.	0.6	0.2	.	.	.	.	.
c1ccc(-c2[nH]c(-c3ccccc3)[n+](CC3CO3)c2-c2ccccc2)cc1 (centres undefined)	-14.2	.	-0.8	2.8	34.1	0.723	.	.	.
COC(=O)[C@H](Cc1ccccc1)NC(=O)Nc1ccc(S(N)(=O)=O)cc1	3.4	.	3.0	-2.0	1.9	.	.	.	.
Cc1ccc2c(c1)C1CN(C)CCC1N2C(=O)Nc1cccc(Cl)c1 (centres undefined)	10.7	.	3.8	1.3	-1.3	0.586	.	.	.
COC(=O)C1=C(c2ccccc2OCc2ccccc2)C[C@@H]2CC[C@H]1N2C(=O)NCc1ccccc1	-1.6	i	0.4	-3.0	0.3	.	-8.5	-8.9	3.4
COc1cc(N2CCOCC2)ccc1C=C1C(=O)NC(=O)NC1=O	0.4	i	.	-0.5	1.6	.	6.5	8.6	9.9
CN1CCc2nc(SCc3ccccc3Br)c(C#N)cc2C1	0.4	i	-2.0	10.6	?	0.614	-7.9	-6.3	6.1
Cc1ccc2c(c1)CC1(CN2C)C(=O)NC(=O)N(CCc2ccccc2)C1=O (centres undefined)	-0.8	.	0.8	0.9	30.0	0.746	.	.	.
C=CCNC(=S)N1Cc2ccccc2-n2nncc2C1	.	i	.	-2.0	.	.	-0.1	1.9	3.7
CCCCCn1c(=O)c(C(=O)Nc2ccccc2C)c(O)c2ccccc21	12.6	i	-39.0	0.3	-0.7	0.723	9.8	9.4	1.9
CN1CCN(S(=O)(=O)c2cnc(Cl)c(Br)c2)CC1	1.8	.	2.0	-1.4	.	0.731	.	.	.
COc1ccc(CN2C(=O)CC(=O)NC2=S)cc1	-1.1	i	4.0	4.8	1.9	0.745	13.5	6.6	23.4
Cc1ccc(S(=O)(=O)N(c2cc(Cl)c(O)c(Cl)c2)P(=O)(OC(C)C)OC(C)C)cc1	2.9	i	-2.5	3.0	7.6	0.698	2.3	2.4	-2.3
O=P(Oc1ccccc1)(Oc1ccccc1)C(O)c1ccc(Cl)cc1 (centres undefined)	4.2	i	3.2	-1.6	74.7	0.729	11.4	8.2	4.4
Cc1ccsc1/C=C1\C(=O)NC(=S)N(C)C1=O	55.1*	i	2.6	-2.5	17.4	0.71	7.1	5.8	14.4
Oc1ccc(CC2CC3CCN2CC3)cc1O (centres undefined)	-15.7	.	0.2	0.3	99.1*	0.712	.	.	.
S=C1CN=C(c2ccccc2Cl)c2cc(Cl)ccc2N1	-2.2	.	2.8	-0.2	12.2	0.678	.	.	.
c1ccc2c3c([nH]c2c1)C1(CCNCC1)NCC3	20.6	i	5.2	3.5	22.4	0.638	-8.7	2.2	1.3
Cc1ccccc1-n1c(CNc2ccccc2)nc2ccccc2c1=O	18.0	i	2.0	-2.4	4.1	0.615	11.3	10.7	10.8
Cc1ccc(C)c(CN2CCC(n3nnc4cc(F)ccc43)CC2)c1	-2.6	.	1.0	-2.3	-5.7	0.637	.	.	.
O=C1NC(=O)N(Cc2ccccc2)C(=O)C1Cc1ccccc1 (centres undefined)	-11.5	i	.	0.8	.	.	6.0	3.2	-6.0
CCOc1ccc(C2SCC(=O)Nc3c2c(C)nn3C2CCOC(C)(C)C2)cc1 (centres undefined)	0.7	.	-0.3	4.6	-4.0	0.671	.	.	.
Cc1c(C=C2C(=O)NC(=O)NC2=O)c(=O)n(-c2ccccc2)n1C	4.7	i	1.5	1.8	12.2	0.671	10.5	4.8	-0.9
O=P(Nc1cccnc1)(Oc1ccccc1Cl)Oc1ccccc1Cl	4.8	i	2.8	2.1	-66.3	0.693	-33.1*	-22.9*	-0.7*
CCN1CCN(c2ccc(NC(C)=O)cc2Cl)CC1	-0.1	i	1.1	1.6	-1.7	0.708	15.2	18.1	4.4
CCOC(=O)C(O)(c1ccc(N=Cc2ccccc2O)c(C)c1)C(F)(F)F (centres undefined)	-2.9	i	-0.5	0.4	11.5	0.691	6.2	16.4	-0.7
Cc1oc(-c2ccc(Cl)cc2)nc1CS(=O)CC(=O)N1CCC2(CC1)OCCO2 (centres undefined)	2.2	.	2.2	-0.2	98.5*	0.641	.	.	.
C(#CCN1CCOCC1)COC/C=C/c1ccccc1	-8.7	.	-9.7	3.8	-3.8	0.739	.	.	.
O=c1c2ccccc2nc(-c2ccco2)n1-c1cccnc1	-5.0	.	9.5	-0.5	-1.5	0.793	.	.	.
COc1ccc(-n2nc(C(=O)NCC(=O)N3CCC4(CC3)OCCO4)c3ccccc3c2=O)cc1OC	8.8	i	-0.6	-2.7	-1.9	0.619	-2.3	-2.5	-2.5
CC1CCCCN1Cc1cccnc1 (centres undefined)	1.0	i	2.5	4.6	-3.6	0.682	6.5	5.9	1.3
CCC(=NCC1CCCO1)c1c(O)n(-c2ccc(Cl)cc2)c(=O)[nH]c1=O (centres undefined)	3.5	.	1.3	-2.1	-0.6	0.691	.	.	.
COc1ccc(C=C2C(=O)N(C)C(=O)N(C)C2=O)cc1COc1ccc(NC(C)=O)cc1	-1.9	i	-1.3	-0.5	.	0.661	.	.	.
CC(C)NC(=O)Cn1cc(C(=O)c2ccccc2)c2ccccc21	5.0	i	2.4	-1.8	2.5	0.691	6.9	3.8	-2.4
CC(Cc1cccs1)NCc1ccc(Cl)cc1 (centres undefined)	3.9	i	0.9	-3.0	.	0.666	12.8	5.5	4.4
O=C(Cc1ccccc1)NC(Cc1ccc(Cl)cc1)C(=O)O (centres undefined)	-2.6	i	3.7	-3.5	.	0.662	8.4	8.9	4.3
C1CCC2S[C@H]3CCCCC3NC2C1 (some centres undefined)	-5.0	i	-1.8	-1.5	-5.0	0.667	12.9	10.2	-0.2
CC(C)OC(=O)C1C2c3ccccc3C(c3ccccc32)C1C(=O)O (centres undefined)	-6.0	.	2.2	-6.0	-0.7	0.676	15.3	7.3	-0.1
Cc1ccc(C2(O)CC(C)N(C)CC2C)cc1 (centres undefined)	2.1	.	3.2	0.3	-3.1	0.685	.	.	.
CCCCn1c(O)c(C(CC)=NCCCn2ccnc2)c(=O)[nH]c1=O	-0.2	i	3.0	3.8	-16.3	0.629	12.8	7.4	0.2
CSc1ccccc1C(=O)C1CCCN(Cc2ccccn2)C1 (centres undefined)	4.6	i	1.0	1.4	-19.1	0.71	-6.0	-9.3	0.5
COc1ccc(CCN)cc1OC	-1.2	i	1.2	2.4	.	0.761	.	.	.
CCOC(=O)c1c(C)n(C(C)C)c2ccc(OC(=O)c3ccc(N4C(=O)CCC4=O)cc3)cc12	-6.2	i	4.9	2.9	4.2	0.696	5.5	4.8	7.4
O=C(COc1ccc(S(=O)(=O)N2CCOCC2)cc1)N1CCN(Cc2ccc3c(c2)OCO3)CC1	-0.3	.	-1.4	2.8	-9.8	0.716	.	.	.
COC(=O)C1=C(c2c(C)noc2C)C[C@@H]2CC[C@H]1N2C(=O)NCCOc1ccccc1Cl	1.7	i	-1.3	-0.1	-0.8	.	-0.3	-3.1	2.9
COc1cc(C(=O)Nc2ccc(Br)cc2C(=O)c2ccccc2)cc(OC)c1OC	-4.2	.	-6.1	-0.7	1.3	0.751	.	.	.
CC[C@H]1CN2CCC1C[C@@H]2[C@H](O)c1ccnc2ccc(OC)cc12 (some centres undefined)	5.9	i	.	-6.5	.	.	.	.	.
COc1ccc(OC(=O)N(C)C[C@@H]2OCc3cnnn3CCCC(=O)N([C@@H](C)CO)C[C@@H]2C)cc1	.	i	.	-0.4	.	.	2.4&3.9	3.1&5.4	-2.2&-1.2
COc1cc2c3cc1Oc1cc(ccc1O)C[C@@H]1c4c(cc(OC)c(O)c4Oc4cccc(c4)C[C@@H]3N(C)CC2)CC[N+]1(C)C	2.5	i	0.4	0.5	8.4	.	.	.	.

Compound activity: PubChem BioAssay, several laboratories
